Methyltransferases – Primary Screen for Target Class Profiling of Small Molecule Inhibitors of Methyltransferases. purified enzyme, MTase-Glo SAH luminescence; active compounds read low. calls only at 40 µM. 25,000 tested, 3.9% active; active = -50% or lower on at least one of six enzymes; inconclusive = the cases between; inactive = as a rule above -30% on all six;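 also: enzymes were COMT GAMT GNMT HNMT NNMT and PNMT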
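Each enzyme was assayed with SAM and its substrate. SAH formation detected by MTase-Glo luminescence; single-point 40 uM screen[…].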
Calls only; i = inactive; ? = inconclusive; + = active, no number. % is scaled to controls: 0 for no effect and ±100 for the full control effect. Not all compounds are listed; rates above refer to the full screens.

mol	Methyltransferases
Cc1ccc(Cn2nc3n(Cc4ccccc4)c(=O)c4ccc(C(=O)NC5CCCC5)cc4n3c2=O)cc1	i
Cc1ccc(Cn2nc3n(C)c(=O)c4ccc(C(=O)NCC(C)C)cc4n3c2=O)cc1	i
Cc1ccc(NC(=O)Cn2nc3n(CCC(C)C)c(=O)c4ccc(C(=O)NCC(C)C)cc4n3c2=O)cc1	i
CC1(C(=O)NCc2ccc(F)cc2)Cn2cnc(C(=O)NCCCc3ccccc3)c2C(=O)N1C1CC1 (stereo unspecified)	i
Cc1cccc(-c2n[nH]n3c2nc(=O)c2ccc(C(=O)NCc4ccc5c(c4)OCO5)cc23)c1	i
CCc1nccc(CN2CCCC(CC3CC3)(C(=O)O)C2)n1 (stereo unspecified)	i
CS(=O)(=O)NCCc1ccc(CC2CCN(C(=O)c3cnccn3)CC2)cc1	i
CC1(C(=O)NC2CCCC2)Cn2c(ccc2-c2ccco2)C(=O)N1Cc1ccc(F)cc1 (stereo unspecified)	i
COc1ccc(CNc2nc3c(S(=O)(=O)c4ccc(Cl)cc4)nnn3c3ccccc23)cc1	i
COc1cc(C2CC(=O)Nc3c2cc(Br)c2ccccc32)cc(OC)c1OC (stereo unspecified)	i
CCCN(C)c1nccnc1OC1CCN(C(=O)c2cccc(OC)c2OC)C1 (stereo unspecified)	i
COc1ccc(OC)c(N2C(=O)c3cc4occc4n3CC2(C)C(=O)NC2CCCCCC2)c1 (stereo unspecified)	i
CN1C(=O)c2cc(NC(=O)c3ccc4c(c3)OCO4)ccc2N2CCN=C12	i
CC(C(=O)N1CCN(c2ccccc2)CC1)n1ccc2cc(S(=O)(=O)N3CCCC3)ccc21 (stereo unspecified)	i
CN1CCN(Cc2ccc(CC3CCN(S(=O)(=O)c4cccc(F)c4)CC3)cc2)CC1	i
CC(=O)Nc1c2n(c3ccc(F)cc13)CC(C)(C(=O)NCCC(C)C)N(C1CCCCC1)C2=O (stereo unspecified)	i
CC(NC(=O)Cn1c(=O)oc2cc(S(=O)(=O)NC3CCCC3)ccc21)c1ccccc1 (stereo unspecified)	i
COc1cc(SC)c(OC)cc1CN1CCC2(CC(=O)NC2=O)C1 (stereo unspecified)	i
O=C(C1CC1)N1CCCC2(CN[S+](=O)([O-])c3cccnc3O2)C1 (stereo unspecified)	i
O=C1CCN(C(=O)C2CCN(C(=O)c3ccc4ccccc4n3)CC2)CCCCCCN1	i
CCC(C(=O)NCc1ccccc1OC)n1ccc2cc(S(=O)(=O)N3CCCCC3)ccc21 (stereo unspecified)	i
COc1cc(CN2CCC(CO)(CN3CCCC3)CC2)ccc1F	i
O=c1onc2n1-c1cc(Br)ccc1OC2	i
C[C@]1(O)CCN(C(=O)c2cccc(Cn3cccn3)c2)C[C@@H]1O	i
COc1ccc(CCNc2ncnc3c2CN(c2ccc(C)cc2)C(=O)CN3C)cc1	i
CCC(C)CC(=O)OC1C(=O)C(CO)=CC(O)C1C(C)C (stereo unspecified)	?
O=C(CCC[C@@H]1[C@H]2CCCN3CCC[C@@H](CN1Cc1cccnc1)[C@@H]23)N1CCN(C2CCCC2)CC1	i
Cc1ccc2c(c1)N(CCCC(=O)N1CCC(C)(c3noc(C4CC4)n3)CC1)C(=O)CO2	i
Cc1cc(-c2ccc(/C=C3\SC(=Nc4ccc(Cl)c(C(=O)O)c4)NC3=O)o2)c([N+](=O)[O-])cc1C	?
O=C(COCC(=O)N1CCN(C(c2ccccc2)c2ccccc2)CC1)Nc1ccc(Cl)cc1C(=O)O	+
CC1CCC2C(C)(C)C(O)CCC2(C)C12Cc1c(O)cc3c(c1O2)CN(C(CCCN=C(N)N)C(=O)O)C3=O (stereo unspecified)	i
CCC(C)C1NC(=O)C2CCCN2C(=O)C(C(C)C)NC(=O)c2ccccc2NC(=O)C(Cc2ccc(O)cc2)NC(=O)C(C)NC(=O)C(C(C)O)NC1=O (stereo unspecified)	i
CCN1/C(=C/C(C)=O)Sc2ccc(OC(C)=O)cc21	?
COc1ccc2c(c1)c(NC(C)=O)c1n2CC(C)(C(=O)NCCC(C)C)N(Cc2ccco2)C1=O (stereo unspecified)	i
CC(C)CCNC(=O)N1CCn2cccc2C1C (stereo unspecified)	i
CC(C)c1nc(-c2ccc(NC(=O)Nc3cccc(C(F)(F)F)c3)c3ccccc23)c2c(N)nccn12	+
Cc1ccc(NC(=O)Cn2c(=O)oc3cc(S(=O)(=O)N4CCCC4)ccc32)cc1Cl	i
CCC(C(=O)NCCC1=CCCCC1)n1ccc2cc(S(=O)(=O)N3CCCCC3)ccc21 (stereo unspecified)	i
CCC1(C(=O)NC2CCCCC2)CCCCC(=O)N1 (stereo unspecified)	i
Cc1cccc(-c2nnn3c2nc(NCCc2ccc(S(N)(=O)=O)cc2)c2ccccc23)c1	i
CC1(C(=O)NC2CCCCC2)Cn2c(cc3sccc32)C(=O)N1Cc1ccccc1Cl (stereo unspecified)	i
CCc1nc(NC(=O)Cn2nc3c(cc2=O)CCCC3)sc1C	i
CCCN1C(=O)c2cc(C(=O)NCc3cccnc3)nn2CC1(C)C(=O)NC1CCCC1 (stereo unspecified)	i
CCc1ccccc1NC(=O)Cn1nc2n(C(C)C)c(=O)c3ccc(C(=O)NC4CCCC4)cc3n2c1=O	i
CCc1cccc(N2C(=O)c3ccccc3CC2(C)C(=O)NCc2ccccc2C)c1 (stereo unspecified)	i
O=C(c1cc2ccccc2o1)N1CCC2(CCCN(Cc3ccccc3F)C2)C1 (stereo unspecified)	i
c1ccc(CNc2nc(N3CCOc4ccccc43)nc3c2CCCC3)cc1	i
CC(c1ccccn1)N(C)Cc1ccc(S(C)(=O)=O)cc1 (stereo unspecified)	i
O=C(O)CCn1ncc2cc(OC3CCN(C(=O)Oc4ccccc4Cl)CC3)ccc21	i
COC(=O)[C@@]1(c2ccc(C)cc2)C[C@H]1CN1CCC(O)(c2ccccc2)CC1	i
CCCOc1ccc(CNC(=O)c2ncn3c2C(=O)N(CCC)C(C)(C(=O)NCCC(C)C)C3)cc1 (stereo unspecified)	i
CCNC(=O)[C@H]1O[C@@H](n2cnc3c(N)nc(NCCc4ccc(CCC(=O)O)cc4)nc32)[C@H](O)[C@@H]1O	i
CCOC(=O)c1cc2n(n1)CC(C)(C(=O)NCCC(C)C)N(CCCc1ccccc1)C2=O (stereo unspecified)	i
CC(C)CCn1c(=O)c2ccc(C(=O)NC3CCCC3)cc2n2c(=O)n(CC(N)=O)nc12	i
CCCOc1ccc(CN2C(=O)c3cc4sccc4n3CC2(C)C(=O)NC2CCCC2)cc1 (stereo unspecified)	i
Cc1ccc2c(c1)c(-n1cccc1)c1n2CC(C)(C(=O)NC2CCCCCC2)N(Cc2ccco2)C1=O (stereo unspecified)	i
CC[C@H](C)[C@H](NC(=O)[C@H]([C@@H](C)CC)N(C)C(C)=O)C(=O)N[C@H](C(=O)N[C@@H](CC(C)C)C(=O)[C@@]1(C)CO1)[C@@H](C)O	?
CCN(c1ccccc1)S(=O)(=O)c1ccc2[nH]c3c(c2c1)CCCC3	i
COc1cccc(NC(=O)CCc2nnc3n(Cc4ccc(Cl)cc4)c(=O)c4ccccc4n23)c1	i
CC(C)CCNC(=O)C1(C)Cn2nc(C(=O)NCCc3ccccc3)cc2C(=O)N1C (stereo unspecified)	i

Pulled by structure from above, 2 records:
mol	Methyltransferases
CCc1cccc(N2C(=O)c3ccccc3CC2(C)C(=O)NCc2ccccc2C)c1 (stereo unspecified)	i
CC(C)c1nc(-c2ccc(NC(=O)Nc3cccc(C(F)(F)F)c3)c3ccccc23)c2c(N)nccn12	+

(more compounds)
mol	Methyltransferases
O=C(c1ccccc1OCC1CCCN(Cc2nccs2)C1)N1CCCC1 (stereo unspecified)	i
CN1C(=O)c2cc(C(=O)NCCCN3CCOCC3)nn2CC1(C)C(=O)NC1CCCCCC1 (stereo unspecified)	i
CCc1cccc(N2C(=O)c3cc(-c4ccco4)nn3CC2(C)C(=O)NC2CCCCCC2)c1 (stereo unspecified)	i
CN(Cc1ccccc1)Cc1cc(CC2(NC3CCCCC3)COC2)no1	i
CCC/C=C/C=C/C1CC(O)C(O)C(=O)C1CO (stereo unspecified)	i
Cc1noc(C)c1[S+](=O)([O-])N1CCn2c(nn(-c3ccc(C(F)(F)F)cc3)c2=O)C1	+
COc1ccccc1CNC(=O)C1c2c(n(C)c3ccccc23)SCC(=O)N1c1cccc(Cl)c1 (stereo unspecified)	i
Cc1nc2c3ccccc3n3c(CCCC(=O)NC4CCN(Cc5ccccc5)CC4)nnc3n2n1	i
CCC(CC)NC(=O)[C@@H]1COCC(=O)N1Cc1ccc(OC)cc1OC	i
O=C(CSc1nnc2n(Cc3ccccc3)c(=O)c3ccccc3n12)NCc1ccccc1	i
CNCCN(C)Cc1cn[nH]c1-c1ccc(OC2CC(OCCC3CCOCC3)C2)cc1 (stereo unspecified)	+
CC1(C(=O)NC2CCCCC2)Cn2c(cc3occc32)C(=O)N1Cc1ccccc1 (stereo unspecified)	i
COc1cccc(C(=O)COc2cc(O)c3c(=O)cc(-c4ccccc4)oc3c2)c1	i
CC1(C)SC2C(NC(=O)[C@H](C(=O)O)c3ccsc3)C(=O)N2C1C(=O)O (stereo partly specified)	i
C=C[C@H]1[C@H](O[C@@H]2O[C@H](CO)[C@@H](O)[C@H](O)[C@H]2O)OC=C2C(=O)N3Cc4c([nH]c5ccccc5c4=O)[C@@H]3C[C@H]21	i
COC1CN(c2cccc(F)c2)C12CCN(S(=O)(=O)c1cccs1)CC2 (stereo unspecified)	i
O=C(N[C@@H]1COCC[C@@H]1OCC1CC1)c1ccc2c(c1)CCCO2	i
Cc1noc([C@H]2CCN(S(C)(=O)=O)C[C@H]2NC(=O)C2CC2)n1	i
O=C(NCCc1ccccn1)c1cccnc1OC1CCNCC1	i
Fc1ccccc1C1Nc2ccc(Br)cc2C2C=CCC21 (stereo unspecified)	i
COc1ccccc1Oc1ncccc1CNC(=O)Nc1cccc(C#N)c1	i
CCCCC1C(=O)N(C)CCN1c1nc2c(s1)c(C)nn2C (stereo unspecified)	i
CCC(C)NC(=O)c1ccc2c(=O)n(C(C)C)c3nn(Cc4c(F)cccc4Cl)c(=O)n3c2c1 (stereo unspecified)	i
CN(CC1(C)CCCO1)S(=O)(=O)c1ccc(Cl)c(S(N)(=O)=O)c1 (stereo unspecified)	i
CCOC(=O)c1cc2n(n1)CC(C)(C(=O)NCc1ccccc1)N(Cc1ccccc1OCC)C2=O (stereo unspecified)	i
COCC1CN(Cc2c(C)n[nH]c2C)CC12CCNCC2 (stereo unspecified)	i
CC1(C(=O)NC2CCCCCC2)Cn2c(c(-n3cccc3)c3ccccc32)C(=O)N1Cc1ccccn1 (stereo unspecified)	i
CNC(=O)c1c(-c2ccc(F)cc2)oc2cc(N(CCO)S(C)(=O)=O)c(C3CC3)cc12	i
COC(=O)C1=C[C@@H](O)[C@@H](O)[C@H](O[C@@H]2O[C@H](COC(=O)/C=C/c3ccccc3)[C@@H](O)[C@H](O)[C@H]2O)C1	i
CC(C)c1ccc2c(c1)C(O)CC1C(C)(CO)CCCC21C (stereo unspecified)	i

Structures above containing a CF3 group (two):
mol	Methyltransferases
CC(C)c1nc(-c2ccc(NC(=O)Nc3cccc(C(F)(F)F)c3)c3ccccc23)c2c(N)nccn12	+
Cc1noc(C)c1[S+](=O)([O-])N1CCn2c(nn(-c3ccc(C(F)(F)F)cc3)c2=O)C1	+

New compounds follow
mol	Methyltransferases
CCNC(=O)c1coc(COc2ccc3c(c2)C(c2cccc(C)c2)N(C(=O)C2CC2)CC3)n1 (stereo unspecified)	i
COC(=O)C1=CO[C@@H](O[C@@H]2O[C@H](CO)[C@@H](O)[C@H](O)[C@H]2O)[C@@H]2C(COC(C)=O)=C[C@H](O)[C@H]12	i
CN(C)c1nc2c(Br)c(Br)c(Br)c(Br)c2[nH]1	?
CCC(C)NC(=O)c1ccc2c(=O)n(C)c3nn(Cc4cccc(F)c4)c(=O)n3c2c1 (stereo unspecified)	i
CCOC(=O)c1ccnc(CNCC(=O)N(CC)CCN(C)C)c1	i
COCCCN1C(=O)c2ccccc2CC1(C)C(=O)NC1CCCCCCC1 (stereo unspecified)	i
Cc1ccc(CN2C(=O)c3ccc(-c4ccco4)n3CC2(C)C(=O)NC2CCCCC2)o1 (stereo unspecified)	i
COc1ccc(CC(=O)NC2CCN(C(=O)c3ccc(-c4cccs4)cc3)CC2)cc1	i
COc1cc(C(=O)OC[C@H]2O[C@@H](Oc3ccccc3/C=C/C(=O)O)[C@H](O)[C@@H](O)[C@@H]2O)cc(OC)c1OC	+
CC1CCC(NC(=O)C2(C)Cn3c(nc4ccccc43)C(=O)N2Cc2ccc(OC(C)C)cc2)CC1 (stereo unspecified)	i
CC1(CNCc2ccccc2)COc2ccc(C(=O)NCc3cccs3)cc2N1 (stereo unspecified)	i
CCCC1c2ccc(C)n2CCN1C(=O)Nc1ccccc1OCC (stereo unspecified)	i
CCOC(=O)c1cc2n(n1)CC(C)(C(=O)NC1CCCCC1)N(c1ccc(C)c(Cl)c1)C2=O (stereo unspecified)	i

In the list so far, 3 have two or more sulfur atoms.
mol	Methyltransferases
CC1(C)SC2C(NC(=O)[C@H](C(=O)O)c3ccsc3)C(=O)N2C1C(=O)O (stereo partly specified)	i
COC1CN(c2cccc(F)c2)C12CCN(S(=O)(=O)c1cccs1)CC2 (stereo unspecified)	i
CN(CC1(C)CCCO1)S(=O)(=O)c1ccc(Cl)c(S(N)(=O)=O)c1 (stereo unspecified)	i

Gathered by group, the compounds so far containing an aryl thioether with sulfur outside any ring (two)
mol	Methyltransferases
COc1cc(SC)c(OC)cc1CN1CCC2(CC(=O)NC2=O)C1 (stereo unspecified)	i
O=C(CSc1nnc2n(Cc3ccccc3)c(=O)c3ccccc3n12)NCc1ccccc1	i
